# Assay outcomes as filed in PubChem BioAssay.
# NPYLR7 ag – agonists of mosquito NPYLR7 receptor, primary screen, cell-based, Aedes aegypti, calcium fluorescence, mosquito biting behavior. activation, % at 10 µM. hit rate 0.15% among 270,000. AID 1259423, 2018. Aedes aegypti neuropeptide Y-like receptor 7 (NPYLR7). HEK293T NPYLR7/Galpha15, GCaMP6s calcium fluorescence; in the data active = activation above about 40%;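 note: 0% = vehicle and 100% = reference agonist at the receptor; some compounds past the cut are filed as inactive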
# NPYLR7 ag max-min – further read-out of NPYLR7 ag, marked with its call; activation, %; measured here: Max-Min RFU normalised activation; some inactives read as strong as hits;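 span of the calcium signal over five minutes; 0% = vehicle and 100% = native peptide agonist; compound fluorescence can raise it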
# * = called active by the depositor; & = joins results of further samples. This is a subset, so the mix of outcomes need not match the whole.
# The first 4 records (preview)
SMILES,NPYLR7 ag,NPYLR7 ag max-min
Cc1ccc(CN(CCN2CCOCC2)Cc2ccc(C(C)(C)O)o2)s1,10.7,6.9
COc1cccc(-n2nc(C(=O)NCc3ccco3)c(=O)n(Cc3ccccc3Cl)c2=O)c1,18.2,16.7
CCN(Cc1ccc(N(C)C)cc1)S(=O)(=O)/C=C/c1ccc(Cl)cc1,3.3,2.1
COCCN=c1scc(-c2ccc(Cl)cc2)n1N=Cc1ccc2c(c1)OCO2,2.2,-4.6

# The listing (from the top)
SMILES,NPYLR7 ag,NPYLR7 ag max-min
Cc1ccc(CN(CCN2CCOCC2)Cc2ccc(C(C)(C)O)o2)s1,10.7,6.9
COc1cccc(-n2nc(C(=O)NCc3ccco3)c(=O)n(Cc3ccccc3Cl)c2=O)c1,18.2,16.7
CCN(Cc1ccc(N(C)C)cc1)S(=O)(=O)/C=C/c1ccc(Cl)cc1,3.3,2.1
COCCN=c1scc(-c2ccc(Cl)cc2)n1N=Cc1ccc2c(c1)OCO2,2.2,-4.6
Cc1ccc(NS(=O)(=O)c2ccc(NC(=S)NC(=O)C(C)C)cc2)c(C)c1,-4.5,-4.9
O=S(=O)(c1ccccc1)N1CCCC(OCc2cc(F)ccc2F)C1 (configuration not stated),-6.0,-4.9
COC(=O)CCCCCCC(=O)N1CCN(Cc2cc(=O)c(OCc3cccc(F)c3)co2)CC1,-0.9,3.6
O=Cc1ccc(Sc2nnc(-c3ccccc3)o2)o1,2.0,2.0
Cc1ccc(CN2CCCC(O)(CO)CC2)cc1C (configuration not stated),0.6,9.9
Cc1cc(=O)oc2cc(O)c(Cl)cc12,4.4,14.5
COc1ccc(-c2sc(N3CCOCC3)nc2-c2ccccc2)cc1,3.5,1.9
Nc1ccc(S(=O)(=O)NC(=O)c2ccccc2)cc1,-10.0&-9.0,-10.0&-15.6
CN(Cc1ccncn1)C(=O)c1cn(Cc2ccc(Cl)cc2)nn1,-0.8,-1.1
O=C(CC1COCCN1)N(Cc1cccnc1)Cc1cccnc1 (configuration not stated),-1.4,-2.0
Cc1cccnc1N1CCN(Cc2cccc(CN3CCOCC3)c2)CC1,1.7,0.0
O=C(CCC(=O)N1CCc2c([nH]c3ccccc23)C1)NCCc1cccnc1,-6.4,-9.5
COc1cccc(-c2cnc(C)[nH]2)c1F,-2.5,-7.2
CCCCn1c(N)c(N(CC)C(=O)c2c(C)noc2C)c(=O)[nH]c1=O,-5.0,0.3
Cc1nc2sccn2c(=O)c1NC(=O)C(C)(C)C,9.1,-4.0
O=C1N(Cc2ccccc2Cl)c2ccc(F)cc2C12NCCS2 (configuration not stated),27.0,36.0
O=C(c1cn(CC2CCCO2)cc2c(=O)n(-c3ccccc3)nc1-2)N1CCOCC1 (configuration not stated),9.6,7.4
COc1ccc(C(=O)N2CCC3(CC2)C(=O)N(CC(=O)NCCc2ccc(Cl)cc2Cl)CN3c2ccccc2)c(OC)c1,9.9,8.0
Cc1ccc(-c2cc(C(=O)N3CC4CCC3C4)cc(-n3cnnn3)c2)s1 (configuration not stated),10.3,3.3
N#Cc1cccc(/C=C2\SC(=NC3CCCC3)NC2=O)c1,9.9,9.2
O=S(=O)(c1ccc2c(c1)OCCCO2)N1CCCC1c1nc2ccccc2s1 (configuration not stated),0.4,1.1
CCONC(=O)c1cc2cccc(Br)c2o1,2.3,2.3
O=C(NCc1n[nH]c(=S)n1-c1ccccc1Cl)c1cccc2ccccc12,-1.3,-3.3
CC1CN(c2cc(Oc3ccccc3Cl)ncn2)CCN1C(=O)NC1CCCCC1 (configuration not stated),-2.4,-0.2
O=C(CCC1CCN(C(=O)C2(N3CCOCC3)CCCCC2)CC1)Nc1ccccc1,14.8,4.9
Cc1c(CN2CCC3(CCCN(CC4CCCCC4)C3=O)C2)cnn1C (configuration not stated),2.2,0.8
O=C(NCCC(c1ccccc1)c1ccccc1)C1CC12CCN(C(=O)c1ccc[n+]([O-])c1)CC2 (configuration not stated),18.3,8.6
Cc1cc(C(=O)Nc2nn(Cc3ccc(COc4ccccc4)cc3)c3ccccc23)no1,14.6,19.1
CCN(CC)C(=O)Oc1ccc2c(ccn2Cc2cc(C(F)(F)F)ccc2C(F)(F)F)c1-c1ccc(OC)c(OC)c1,24.2,18.2
COc1ccc(OC)c(S(=O)(=O)N2CCC3(CCN(C)CC3)C2)c1,6.6,20.3
COC[C@H]1C[C@H]2C[C@H](O)[C@@H](NC(=O)NCc3ccccc3F)[C@@]2(O)CO1,1.8,-1.3
Cc1nc(CC(=O)NCCc2c[nH]c3c(C)cccc23)c(C)s1,4.5,2.3
Cc1c(C)n2c3c(=O)[nH]c(=O)n(C)c3nc2n1CCBr,2.9,0.6
CCS(=O)(=O)CCNC(=O)[C@@]12CNC[C@@H]1CN(C)C2,-3.3,-5.0
CC1(C)Cc2nc3sc4c(N5CCNCC5)ncnc4c3cc2CS1,14.9,5.5
Cc1ccc2oc(CN(Cc3ccccc3Cl)C(=O)c3ccco3)nc2c1,5.9,3.6

# Full records, quoted from the list. Order of screens: NPYLR7 ag	NPYLR7 ag max-min
# `Cc1ccc2oc(CN(Cc3ccccc3Cl)C(=O)c3ccco3)nc2c1` as listed: 5.9	3.6
# `Cc1c(C)n2c3c(=O)[nH]c(=O)n(C)c3nc2n1CCBr` as listed: 2.9	0.6
# `Cc1cc(C(=O)Nc2nn(Cc3ccc(COc4ccccc4)cc3)c3ccccc23)no1` as listed: 14.6	19.1
# `CC1(C)Cc2nc3sc4c(N5CCNCC5)ncnc4c3cc2CS1` as listed: 14.9	5.5
# `O=C(NCCC(c1ccccc1)c1ccccc1)C1CC12CCN(C(=O)c1ccc[n+]([O-])c1)CC2` (configuration not stated) as listed: 18.3	8.6

# Random excerpt: 2 compounds from above, in no set order.
SMILES,NPYLR7 ag,NPYLR7 ag max-min
CCS(=O)(=O)CCNC(=O)[C@@]12CNC[C@@H]1CN(C)C2,-3.3,-5.0
COc1ccc(OC)c(S(=O)(=O)N2CCC3(CCN(C)CC3)C2)c1,6.6,20.3

# More results:
SMILES,NPYLR7 ag,NPYLR7 ag max-min
N#CCCn1cc(CNC2CCC(O)CC2)c2ccccc21 (configuration not stated),4.6,2.8
Cc1ccc2nc(SCC(=O)N3CCCCC3)nc(=O)n2c1,0.0,-2.4
Cc1ccccc1Cn1c(Cc2ccccc2F)n[nH]c1=O,-3.0,-4.6
Cc1nc(C(F)(F)F)ccc1C(=O)N1CCN(Cc2cc(=O)c(OCc3cccc(F)c3)co2)CC1,14.4,9.9
O=C(NNS(=O)(=O)c1c(F)cccc1F)c1cc(Cl)c[nH]1,13.0,5.3
Cc1ccc(CC2(C)C(=O)Nc3ccc(S(=O)(=O)NC4CCCCC4)cc32)cc1 (configuration not stated),4.0,-0.6
Cc1nonc1OCCNC(=O)Cc1c(C)[nH]c2c(F)cccc12,-0.5,-3.2
CCCCC(=O)Nc1c(-c2ccccc2C)nc2ccc(C)cn12,-7.1,-7.2
CC(C)c1ccccc1NC(=O)c1cccnc1Nc1cccc(Cl)c1,-13.3,-22.1
Cc1cc(C)c(CN2C[C@H]3C[C@H](O)[C@@H](O)C[C@H]3C2)c(-n2cccn2)c1,-1.0,1.0
COCC(=O)NCC1=CCN(Cc2cc(F)ccc2Cl)CC1,-1.2,-3.3
Cc1ccccc1OCC(O)CN(C)C1CCc2ccccc21 (configuration not stated),9.7,6.5
Cc1nnc(NCCCO)[nH]c1=O,16.9,12.2
Cc1ccc(C)c(S(=O)(=O)c2cn(C)c3cc(N4CCCC(C)C4)c(F)cc3c2=O)c1 (configuration not stated),-5.9,-14.3
CCC(C)C1C2=C(CC(C)(C)CC2=O)OC(=N)C1C#N (configuration not stated),-5.1,-2.7
COc1ccc(NC(C)=O)c(NS(=O)(=O)c2cccc(Cl)c2F)c1,0.2,15.2
COc1ccc(CCc2nnc(CCC(=O)N(C)CCCN3CCOCC3)o2)cc1,1.2,-0.8
CN1CCCC2(CCN(C(=O)CCCn3cnnn3)C2)C1=O (configuration not stated),0.0,0.2
Cc1ccc(NNC(=O)c2ccc(NC3CC3)nc2)cc1Cl,4.0,5.3
Cc1ccc(Cl)cc1-n1c(SCc2nc(C(=O)NC(Cc3ccccc3)c3ccccc3)cs2)nnc1-c1cccnc1 (configuration not stated),13.7,6.9
Cn1c(=O)c2c(nc(Cl)n2CC(O)CO)n(C)c1=O (configuration not stated),5.6,2.2
CCc1nnc(NC(=O)c2ccc(C)c([N+](=O)[O-])c2)s1,-11.8,-12.9
CCOC(=O)C1(Cc2ccc(OC)cc2)CCN(C(=O)c2cccnc2)CC1,18.2,3.5
O=C(NCCCc1ccc(Cl)cc1Cl)c1n[nH]c(=O)[nH]1,0.0,-0.5
Cc1ccccc1COc1cccn2c(N(C)C(=O)C3CCCCC3)c(C)nc12,4.0,-3.1
CCOc1ccc(N2CCN(C(=O)C3CCCC3)C(C)C2=O)cc1 (configuration not stated),-0.6,8.4
Nc1ccccc1N1CCC(CO)CC1,1.6,17.1
O=C(CSc1ncnc2c1oc1ccccc12)c1ccc(F)cc1,-3.1,-4.7
COc1ccc(C(C)=O)cc1CN1C(=O)C(C)ON=C1c1ccccn1 (configuration not stated),-0.2,-4.9
Cc1nc2c3ccccc3nn2c(C)c1CCC(=O)NCc1ccccc1CN1CCOCC1,-0.1,-0.8
CN(CC(=O)c1ccc(O)cc1)C(=O)C1=NNC(=O)CC1,7.5,5.0
Cc1ccc(-c2cc(C(=O)Nc3cnn(C45CC6CC(CC(C6)C4)C5)c3)no2)cc1,-15.6,-22.7
COc1ccc(-c2nc(CN(C)Cc3ccc4nsnc4c3)c(C)o2)c(C)c1C,3.0,7.0
O=C(NCCNC(=O)[C@H]1CCCN1C(=O)c1ccc(Cl)c(Cl)c1)c1ccccc1,-1.0,10.7
COc1nc(C)cnc1NS(=O)(=O)c1cccnc1-c1ccc(-c2nnco2)cc1,-6.9,-8.9
Cc1cccc(CNC(=O)N2CCN(C(c3ccc(F)cc3)c3ccc(F)cc3)CC2)c1,24.0,7.9
Cc1n[nH]c(C)c1Sc1ccccc1N=Cc1cc([N+](=O)[O-])ccc1O,10.2,2.6
CCCc1cc(C(=O)OCC)c(NC(=O)c2ccccc2)s1,6.8,-2.5
COc1cc(-c2nc(CN3CCCC3c3nc4ccccc4s3)c(C)o2)cc2c1OCO2 (configuration not stated),12.2,2.6
CCCCOc1ccc(C(=O)Nc2sc3c(c2C#N)CCC3)cc1,-0.1,-3.6
Cc1ccc(CN(Cc2ccccc2)Cc2nc(C(=O)NCc3ccco3)co2)c(C)c1,20.9,5.0
Cc1ccc(NC(=O)CSc2nc(=O)n3ccccc3n2)cc1,1.7,-0.4
O=C1CCCN1c1ccc(NS(=O)(=O)c2ccccc2)cc1Cl,-1.1,4.7
CC(C)(C)c1cc(O)c(O)c(CN2CC3CCC2C3)c1 (configuration not stated),-0.3,1.0
Cc1ccc(-n2ncc3c(=O)n(NC(=O)C4CCCCC4)cnc32)cc1,14.3,9.9
COc1ccccc1/C=C/C=c1s/c(=C/C(=O)C(C)(C)C)[nH]c1=O,12.6,9.7
Cc1nc2[nH]c(=O)[nH]c(=O)c2[nH]1,1.8,1.0
Cc1ccc(-n2c(O)c(C=Nc3ccc(C(=O)NC45CC6CC(CC(C6)C4)C5)cc3)c(=O)[nH]c2=O)cc1,7.6,11.4
O=C(C1CCCO1)N1CCN(c2ncnc3c2nnn3-c2cccc(F)c2)CC1 (configuration not stated),-13.7,-20.4
COc1cc(N=c2scc(-c3ccccc3)n2-c2ccc(F)cc2)cc(OC)c1,-4.3,-7.8
# The list continues:
SMILES,NPYLR7 ag,NPYLR7 ag max-min
COc1ccc(C2Nc3ccccc3C(=O)N2c2ccccc2)c(OC)c1 (configuration not stated),-8.2,-10.5
O=C(NC1CCCCC1)NC1(CO)CCCC1,1.6,2.1
CC(C)(C)CNC1CCC(C(=O)N2CCSCC2)CC1 (configuration not stated),-6.1,-6.3
Cc1ccc(S(=O)(=O)C2(C(=O)N3CCNC(=O)C3)CCCC2)cc1C,-11.7,-13.8
COCCCNC(=O)NC(=O)CCl,-8.2,-12.9
CNC=CC(=O)C(F)(F)F,-0.4,-0.6
FC(F)(F)c1cc(-c2ccco2)nc(N2CCCC2)n1,-1.2,-4.8
O=C(NC1CCC(NC(=O)[C@H]2CCCN2C(=O)C23CC4CC(CC(C4)C2)C3)CC1)c1ccccc1 (some centres not stated),3.4,14.1
Cc1ccc(S(=O)(=O)c2c(C)nn(C(C)(C)C)c2OC(=O)Cc2ccccc2)cc1,1.7,18.1
N#Cc1c(N2C(=O)C3C4CCC(O4)C3C2=O)sc2c1CCCCC2 (configuration not stated),-1.1,-3.0
Cc1ccc(C2c3cc4c(cc3OC(=N)C2C#N)OCO4)cc1 (configuration not stated),4.9,3.2
CCOC(=O)C1CCN(C(=O)c2ccc(-n3nc(C)c(CC)c3C)cc2)CC1,-7.0,-11.9
CC1(C(=O)NS(=O)(=O)Cc2ccccc2)CCN1C(=O)Cc1ccccc1 (configuration not stated),-0.1,-0.7
C=C(C)CN(CC)S(=O)(=O)c1ccc2[nH]cc(C(=O)O)c(=O)c2c1,0.6,-0.2
CC1CCCCN1C(=O)CNc1ccc(Cl)c(C(=O)N(C)C)c1 (configuration not stated),-7.6,-8.5
CC(=O)c1c(C)cc(C)c(Cn2cnc3sccc3c2=O)c1C,8.0,6.0
CCO[C@H]1COC[C@@H]1NC(=O)c1sc(OC)nc1C,2.1,0.2
COc1ccc2oc(=Nc3cccc(C#N)c3)c(-c3nc4ccccc4[nH]3)cc2c1,-5.2,-6.8
CC1CCN(C(=O)CNC(C)(C)c2ccccc2)c2ccccc2S1 (configuration not stated),-19.3,-23.6
O=C(NC(c1ccccc1)c1ccncc1)c1ccc(F)cc1Cl (configuration not stated),6.9,3.5
CC(=O)N1CCCn2nc(C(=O)NC(c3ccccc3)c3ccco3)cc2C1 (configuration not stated),3.9,3.3
CN(CC1CCCCO1)C(=O)c1ccc(CN2CCCC2)o1 (configuration not stated),-3.0,-8.1
COc1ccccc1C(C)N(C)Cc1nc(Cc2cccc(F)c2)no1 (configuration not stated),2.9,0.0
